Compound activity: PubChem BioAssay, ICCB-Longwood Screening Facility, Harvard Medical School
MenB inh: blocks the Mycobacterium tuberculosis MenB enzyme; P9WNP5; MenB enzyme assay, absorbance read-out; some hits fall short of the stated cut; inhibition, %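 (about 12 µg/mL by stock and volumes)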; 0.43% of 100,000 active; AID 540299;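 active = mean of two replicates above 30%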;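 note: 0% = no compound and 100% = wells with inactive enzyme; the first replicate is given; strong numbers were not always called active; inactives centre near -10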
MbtI inh: blocks the Mycobacterium tuberculosis siderophore enzyme MbtI; P9WFX0; 0.89% of 100,000 active; inhibition, %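 (about 17 µg/mL by stock and volumes)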; purified MbtI enzyme, fluorescence intensity read-out; AID 493033;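 active = above 50% in both replicates, above 80% if mildly self-fluorescent; inactive = the rest, strongly fluorescent compounds included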;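 note: 0% = mean of negative and 100% = mean of positive controls; one replicate is shown; some compounds called inactive have numbers as strong as hits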
Target sequence (P9WFX0 whole entry, looked up): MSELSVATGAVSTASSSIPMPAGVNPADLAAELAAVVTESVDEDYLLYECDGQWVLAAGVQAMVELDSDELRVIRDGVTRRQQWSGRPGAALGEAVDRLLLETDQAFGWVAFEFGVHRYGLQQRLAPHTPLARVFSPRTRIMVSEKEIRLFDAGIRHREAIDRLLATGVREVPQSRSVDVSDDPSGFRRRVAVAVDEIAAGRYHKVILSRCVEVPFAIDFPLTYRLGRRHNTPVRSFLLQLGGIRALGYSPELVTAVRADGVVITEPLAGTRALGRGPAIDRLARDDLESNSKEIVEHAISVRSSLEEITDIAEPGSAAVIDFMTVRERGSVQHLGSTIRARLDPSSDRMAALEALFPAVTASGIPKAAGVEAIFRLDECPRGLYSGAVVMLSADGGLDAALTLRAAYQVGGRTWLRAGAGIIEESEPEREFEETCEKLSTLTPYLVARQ
Polio RdRp inh: poliovirus RNA polymerase inhibition. poliovirus polymerase elongation, fluorescence polarization; active compounds read low. % elongation, % (compound at 16.7 µg/mL). 0.66% of 150,000 active. AID 588519; in the data active = % elongation below about 90%; note: some results filed as inactive read as strong as hits
Target sequence (P03300 1749-2209 limits assumed): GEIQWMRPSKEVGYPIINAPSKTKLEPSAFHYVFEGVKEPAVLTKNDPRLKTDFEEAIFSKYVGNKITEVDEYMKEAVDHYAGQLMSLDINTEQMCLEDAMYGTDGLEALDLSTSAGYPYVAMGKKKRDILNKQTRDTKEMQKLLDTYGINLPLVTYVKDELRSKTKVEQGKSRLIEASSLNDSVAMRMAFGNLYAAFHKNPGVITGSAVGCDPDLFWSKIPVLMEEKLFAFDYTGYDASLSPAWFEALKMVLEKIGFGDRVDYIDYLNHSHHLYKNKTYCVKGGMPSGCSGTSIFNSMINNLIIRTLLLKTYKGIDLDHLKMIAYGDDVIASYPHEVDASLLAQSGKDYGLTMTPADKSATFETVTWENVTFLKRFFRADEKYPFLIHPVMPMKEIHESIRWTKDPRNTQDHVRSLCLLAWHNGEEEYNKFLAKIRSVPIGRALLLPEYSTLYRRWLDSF
Polio RdRp inh intensity: also measured in Polio RdRp inh; calls as there; % elongation; measured here: total intensity read-out; formula for this scale not given here;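 total fluorescence in place of polarization; lower means less elongation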
The depositor's hits bear a star; · = no result given.

Every second line gives: MenB inh, MbtI inh, Polio RdRp inh, Polio RdRp inh intensity
1) Cc1noc(C)c1COc1ccc(CC(=O)NCCc2ccccn2)cc1
→ -25, 3, 101, 97
2) CCc1nnc(NC(=O)CCCn2c(=O)oc3ccccc32)s1
→ -19, 4, 103, 104
3) COc1ccc(CC(=O)NCCn2ccc3ccccc32)cc1
→ 6, 5, 103, 98
4) N#Cc1ccc(CSc2nncn2-c2ccccc2)cc1
→ -4, 5, 111, 106
5) CCN(CC)C(=S)SCc1cn2ccccc2n1
→ -65, 43, 99, 112
6) FC(F)(F)c1ccc(Cl)c(NC2=NCCC2)c1
→ ·, -15, 101, 107
7) CCn1c(=O)[nH]c(=O)c2c(C(=O)OC)cc(-c3ccc(C)cc3)nc21
→ 4, 102, 97, 97
8) CN1c2ccccc2C(=O)/C(=C\Nc2cc(C(F)(F)F)cc(C(F)(F)F)c2)S1(=O)=O
→ 10, 2, 102, 99
9) O=C(Nc1ccc(N2CCOCC2)cc1)c1ccc2c(=O)[nH][nH]c(=O)c2c1
→ -17, -1, 103, 90
10) Cc1nc(SCCCCC#N)c2ccccc2n1
→ -12, 2, 95, 73
11) Cc1ccc2c(C)nc(N/C(N)=N/S(=O)(=O)c3ccccc3)nc2c1
→ -3, -4, 104, 108
12) COC(=O)CNC(c1ccccc1)c1cc(Br)ccc1NC(=O)CCN1CCOCC1 (configuration not stated)
→ -9, 0, 101, 102
13) Cc1nc(-c2ccccc2)nc(OC(=O)N(C)C)c1Oc1cccc(C(F)(F)F)c1
→ 0, -9, 104, 111
14) O=C(Cn1nnc(-c2cccc(C(F)(F)F)c2)n1)NC1CC1
→ -10, 0, 94, 151
15) CCS(=O)(=O)N1CCN(CC2CC=CCC2)CC1 (configuration not stated)
→ -4, 0, 102, 102
16) Cn1c(CO)nc2cc(N=Cc3ccccc3O)ccc21
→ ·, -2, 102, 97
17) COc1ccccc1COc1ncnc2c1cnn2-c1ccccc1
→ 6, 13, 105, 98
18) S=c1nc2c(n[nH]1)[nH]c1ccccc12
→ -38, 57, 98, 85
19) FC(F)(F)c1ccc(NCc2ccco2)nc1
→ -4, -20, 103, 101
20) Cn1c(=NC(=O)C2Cc3ccccc3CN2C(=O)c2ccco2)sc2ccccc21 (configuration not stated)
→ -31, 95, 102, 105
21) CN(C(=O)C(C)(C)Oc1ccc(Cl)cc1)c1ccccc1
→ 8, -3, 107, 101
22) CSc1scc2c1-c1nn(C(=O)c3cccc(C(F)(F)F)c3)cc1CC2
→ -23, 14, 108, 100
23) CCc1c(O)nc(SCC(=O)Nc2nnc(SCc3ccccc3)s2)[nH]c1=O
→ -16, 35, 97, 102
24) c1coc(C2NCCS2)c1 (configuration not stated)
→ -26, 3, 100, 99
25) CCOC(=O)c1cc(-c2cccs2)nn1-c1ccc(C)cc1C
→ ·, -4, 101, 95
26) COC(=O)c1ccc(-c2c3c(nc4nc(N)[nH]c(=O)c24)-c2ccccc2C3=O)cc1
→ -39, 0, 82, 129
27) CCc1[nH]nc2c1C(c1cc(OC)c(OC(C)=O)c(OC)c1)C(C#N)=C(N)O2 (configuration not stated)
→ -16, ·, 100, 100
28) Cn1c(O)c(N=NC(=O)CCN2CCN(Cc3ccc4c(c3)OCO4)CC2)c2ccccc21
→ -7, -1, 102, 103
29) CC1CCCCN1C(=O)COCc1cc(-c2ccc3c(c2)OCO3)on1 (configuration not stated)
→ -6, 19, 101, 103
30) O=C1Nc2ncccc2OC1c1ccccc1 (configuration not stated)
→ -16, 9, 103, 104
31) O=C(O)c1cc(Cl)c(Cl)cc1C(=O)Nc1ccc(Oc2ccccc2)cc1
→ -21, ·, 104, 100
32) N#Cc1ccc(-c2cccnc2)n(CC(=O)N2CCOCC2)c1=O
→ 42*, 27, 101, 99
33) Cc1cc(=O)oc2cc(OC(=O)c3cc4ccccc4o3)ccc12
→ -4, ·, 98, 101
34) CC1CCN(C(=O)c2cc(Cl)ccc2Cl)CC1
→ 5, ·, 97, 102
35) Cc1ccc(C2=NNC(=O)C(c3cn(CCC#N)c4ccccc34)C2)cc1 (configuration not stated)
→ -10, -5, 100, 103
36) COc1ccc(CCNC(=O)c2ccccc2N)cc1
→ ·, 102, 102, 97
37) COc1ccc2oc(C(=O)NCCNc3ncc(C(F)(F)F)cc3Cl)c(C)c2c1
→ -8, 16, 105, 105
38) CN(c1nnc(NC(=O)NCc2ccc(F)cc2)s1)C1CCCCC1
→ -2, 64, 103, 102
39) N#Cc1ccccc1OCC(=O)Nc1ccc2c(c1)OCCCO2
→ -13, -10, 102, 105
40) C=CCn1c(CNC(=O)c2ccc(OC)c(OC)c2)nnc1SCC(=O)Nc1nc(C)cs1
→ -13, 4, 101, 101
41) O=S(=O)(Nc1ccc2cn[nH]c2c1)c1ccccc1
→ -15, 0, ·, ·
42) CN(C)c1cccc(C(=O)NCc2ccccc2)c1
→ -9, -21, 102, 98
43) Cc1nc2sccn2c(=O)c1S(=O)(=O)Nc1ccc(N2CCC(C)CC2)cc1
→ -6, -11, 105, 106
44) COC(=O)c1ccc2c(c1)NC(=S)c1ccccc1S2
→ -48, 9, 102, 103
45) CC1CCC(Nc2c(-c3cccc(Br)c3)nc3c(C#N)c[nH]n23)CC1 (configuration not stated)
→ -4, 5, 105, 107
46) Cc1ccc(C)n1-c1ccc(C(=O)O)c(C(=O)O)c1
→ -7, 7, 102, 104
47) CC(C)(O)C#Cc1ccc(C#N)cc1
→ 5, -1, 102, 106
48) CC(=O)N1CCN(c2ccc(Oc3ncnc4sccc34)cc2)CC1
→ -21, -1, 102, 106
49) CCOCc1cnc(C)nc1NCC(=O)c1c(C)[nH]c2ccc(OC)cc12
→ 8, 10, 103, 100
50) O=C(Nc1ccc(Cl)cc1)Nc1cc(C(=O)NC2CC2)ccc1N1CC2CC(C1)c1cccc(=O)n1C2 (configuration not stated)
→ -23, -1, 102, 101

Looked up above:
In MenB inh, #49 has the entry 8
In Polio RdRp inh, #48 has the entry 102
In MbtI inh, #50 has the entry -1
In MenB inh, #45 has the entry -4
In MbtI inh, #43 has the entry -11
In Polio RdRp inh, #44 has the entry 102
In Polio RdRp inh intensity, #46 has the entry 104

The results go on:
Every second line gives: MenB inh, MbtI inh, Polio RdRp inh, Polio RdRp inh intensity
51) Fc1ccccc1Cc1nnc2n1N=C(c1ccc(Cl)cc1)CS2
→ -20, -26, 105, 109
52) Cc1nnc(SC(C(=O)NC(N)=O)c2ccccc2)n1C1CCCCC1 (configuration not stated)
→ -2, -11, 98, 96
53) CCN(CC)CC(=O)Nc1c(C#N)cnn1-c1ccccc1
→ -29, 13, 105, 102
54) COC(=O)c1sc(NC(=S)Nc2ccn(C)n2)c(C(=O)OC)c1C
→ -9, -6, 100, 104
55) CN(C(=O)COC(=O)c1ccc(Cl)c(N)c1)c1ccccc1
→ ·, -17, 103, 102
56) CCCc1ccc(CC2(CC(=O)OCC)C(=O)c3ccccc3C2=O)cc1
→ -4, 2, 100, 104
57) Cc1ccc(S(=O)(=O)N2CC(C)C(=O)CC2C)cc1 (configuration not stated)
→ -50, -2, 102, 100
58) O=C(O)c1ccc(Nc2ncnc3c2cnn3-c2ccccc2)cc1
→ 3, -19, 91, 96
59) C(=C1/CCCC2=C1Nc1ncnn1C2c1ccccc1)/c1ccccc1 (configuration not stated)
→ -15, 157, 104, 111
60) CCCCN(CC)Cc1ccc(CNC(=O)Nc2ccccc2)o1
→ 3, -3, 102, 108

Of the compounds above, 6 have an aryl thioether with sulfur outside any ring:
Every second line gives: MenB inh, MbtI inh, Polio RdRp inh, Polio RdRp inh intensity
4) N#Cc1ccc(CSc2nncn2-c2ccccc2)cc1
→ -4, 5, 111, 106
10) Cc1nc(SCCCCC#N)c2ccccc2n1
→ -12, 2, 95, 73
22) CSc1scc2c1-c1nn(C(=O)c3cccc(C(F)(F)F)c3)cc1CC2
→ -23, 14, 108, 100
23) CCc1c(O)nc(SCC(=O)Nc2nnc(SCc3ccccc3)s2)[nH]c1=O
→ -16, 35, 97, 102
40) C=CCn1c(CNC(=O)c2ccc(OC)c(OC)c2)nnc1SCC(=O)Nc1nc(C)cs1
→ -13, 4, 101, 101
52) Cc1nnc(SC(C(=O)NC(N)=O)c2ccccc2)n1C1CCCCC1 (configuration not stated)
→ -2, -11, 98, 96

Additional results follow:
Every second line gives: MenB inh, MbtI inh, Polio RdRp inh, Polio RdRp inh intensity
61) Cn1c(N)nc(N)c(NC(=O)COc2ccc(Cl)cc2Br)c1=O
→ 7, 1, 72, 138
62) O=C1C2ON(c3ccccc3)C(c3ccncc3)C2C(=O)N1c1ccc(N2CCOCC2)cc1 (configuration not stated)
→ 10, -5, 103, 101
63) Cc1ccc(C(C)C)c(OCC(=O)N=Nc2c(O)n(CN3CCOCC3)c3ccccc23)c1
→ 11, 2, 102, 107
64) CC(C)NC(=S)N1CCN(Cc2c(Cl)cccc2Cl)CC1
→ 11, 5, 100, 103
65) O=C(/C=C/c1ccccc1)N1CCN(c2ncccn2)CC1
→ -23, 25, 102, 109
66) O=c1c2ccccc2nnn1CSc1nnc(Cc2cccs2)n1C1CCCCC1
→ -10, 8, 109, 117
67) COc1cc(/C=N/NC(=O)Cc2csc(C)n2)cc(OC)c1
→ -14, -11, 105, 104
68) Cn1c2ccccc2c2nnc(SCc3ccccc3)nc21
→ 10, -9, 100, 103
69) CCCNS(=O)(=O)c1ccc2c(c1)OCC(=O)N2
→ 3, 6, 100, 104
70) O=C(NCc1ccccc1)C1CCC1
→ -3, ·, 102, 107
71) CCOC(=O)N1CCC(NC(=O)C(CC(C)C)NC(=O)C2CCC(C)CC2)CC1 (configuration not stated)
→ -42, -8, 100, 102
72) NNc1nc(-c2ccccc2)c2cc(Cl)ccc2n1
→ -73, 12, 104, 109
73) O=C1CN(Cc2nc3cc(Cl)ccc3c(=O)[nH]2)CCN1
→ -20, 2, 109, 129
74) CC(C)Cc1cc(C(=O)NC2CCCCC2)no1
→ 4, -6, 102, 107
75) C=CCn1c(-c2ccccc2)nn(CCC#N)c1=S
→ -2, ·, 98, 105
76) Clc1ccc(-c2cc3c(nn2)Nc2ccccc2N3)cc1
→ -25, -66, 101, 101
77) CN(C)c1ccc(C=Nc2cc(Br)c3c(c2)OCCO3)cc1
→ 7, 11, 102, 104
78) Cc1ccc(NC(=O)c2cc3cc(OC(F)(F)F)ccc3[nH]2)cc1
→ -4, 1, 106, 101
79) NC(CSCc1ccccc1Cl)C(=O)O (configuration not stated)
→ -1, -10, 101, 108
80) O=C(Cc1nc2ccccc2[nH]c1=O)c1ccc(Cl)cc1
→ -33, -6, ·, ·
81) O=C1CC2NCCc3cccc1c32 (configuration not stated)
→ -9, 8, 100, 103
82) c1ccc(-c2c(-c3ccccc3)n(Cc3ccco3)c3ncn4nc(-c5ccccn5)nc4c23)cc1
→ 14, 29, 98, 102
83) CC1N=C(c2ccccc2)c2cc(Br)ccc2NC1=O (configuration not stated)
→ -11, 2, 101, 105
84) CC(C)c1ccc(/C=C/C(=O)NC(=S)Nc2ccc(C(=O)O)cc2)cc1
→ -16, 2, 103, 106
85) CCOc1ccc2nc3c(=O)[nH]c(=O)[nH]c3nc2c1
→ -33, ·, 41, 198
86) Cc1cnc(-c2ccc(Br)cc2)nc1
→ -33, 1, 100, 102
87) CC(Nc1ccc(Br)cc1)C(=O)NC(=O)NC1CCCCC1 (configuration not stated)
→ -9, 8, 103, 106
88) CN(CC12CC3CC(CC(C3)C1)C2)C(=O)c1ccco1
→ -13, -8, 101, 103
89) Cc1cccc(CSCc2nnc(NC(=O)/C=C/c3ccccc3)s2)c1
→ -11, 15, 102, 106
90) FC(F)(F)C(Oc1nc(N2CCCCC2)nc(N2CCCCC2)n1)C(F)(F)F
→ 21, 0, 103, 101
91) CC(C)C(=O)Nc1ccc2oc(=O)ccc2c1
→ 1, ·, 105, 112
92) CN1CCN(CCCNC(=O)c2ccc3c(c2)N(Cc2ccc(F)cc2)CCS3)CC1
→ 13, 117, 99, 100
93) CCN(c1ccccc1)S(=O)(=O)c1ccc(-c2n[nH]c(C)c2C)s1
→ -27, 12, 100, 103
94) Cc1ccccc1C(=O)NN1C(=O)c2ccccc2C1=O
→ 33*, -1, 101, 102
95) O=C(N/N=C/c1cn(-c2ccccc2)nc1-c1ccccc1)c1ccco1
→ -5, 4, 99, 100
96) CCOc1ccccc1NC(=O)CN1C(=S)NC(C)(C)CC1C (configuration not stated)
→ -23, 1, 101, 103
97) O=C1OC(c2ccccc2)=N/C1=C\c1ccc(N2CCOCC2)cc1
→ 2, -4, 44, 240
98) Cc1ccc(CC2C(=O)N(c3nc(C)cc(C)n3)C(=O)C2C)cc1 (configuration not stated)
→ 0, -3, 100, 102
99) CCN(CC)c1c2c(nc3nncn13)CCC2
→ -2, -4, 102, 98
100) Cc1cc(N2CCOCC2)nc2ccc(NC(=O)CCC(=O)NC3CCCCC3)cc12
→ -23, 7, 102, 101
101) O=C(NCCC1=CCCCC1)C1CCCN(c2cnccn2)C1 (configuration not stated)
→ 1, -72, 103, 103
102) O=C(C(c1ccccc1)N1Cc2ccccc2C1=O)N1CCc2ccccc21 (configuration not stated)
→ 7, 0, 102, 97
103) CCOC(=O)c1sc(N)c(C#N)c1COC(=O)CCCN1C(=O)c2ccccc2C1=O
→ -1, -14, 40, 238
104) CC(C)(C)NC(=S)NCC1CC1
→ -19, -5, 105, 99
